Rango-impB inh: inhibitors of Rango-importin beta complex formation; Rango CFP/YFP FRET sensor + importin beta, 45 min; Potency, µM (titrated, usually from 92.2 µM), for inactives: top-dose inhibition of complex formation; actives 0.031% (n = 340,000); active = rising FRET ratio curve, often small or poorly fitted; inconclusive = mostly compound fluorescence or quenching in the first reads; inactive = flat curves in all reads;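 also: potency is read from the fitted curve at half-maximal effect; 0% = DMSO wells and 100% = buffer wells lacking importin beta; nearly all actives have a fitted effect of over 15% in size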
Target sequence (Q14974 whole entry, looked up): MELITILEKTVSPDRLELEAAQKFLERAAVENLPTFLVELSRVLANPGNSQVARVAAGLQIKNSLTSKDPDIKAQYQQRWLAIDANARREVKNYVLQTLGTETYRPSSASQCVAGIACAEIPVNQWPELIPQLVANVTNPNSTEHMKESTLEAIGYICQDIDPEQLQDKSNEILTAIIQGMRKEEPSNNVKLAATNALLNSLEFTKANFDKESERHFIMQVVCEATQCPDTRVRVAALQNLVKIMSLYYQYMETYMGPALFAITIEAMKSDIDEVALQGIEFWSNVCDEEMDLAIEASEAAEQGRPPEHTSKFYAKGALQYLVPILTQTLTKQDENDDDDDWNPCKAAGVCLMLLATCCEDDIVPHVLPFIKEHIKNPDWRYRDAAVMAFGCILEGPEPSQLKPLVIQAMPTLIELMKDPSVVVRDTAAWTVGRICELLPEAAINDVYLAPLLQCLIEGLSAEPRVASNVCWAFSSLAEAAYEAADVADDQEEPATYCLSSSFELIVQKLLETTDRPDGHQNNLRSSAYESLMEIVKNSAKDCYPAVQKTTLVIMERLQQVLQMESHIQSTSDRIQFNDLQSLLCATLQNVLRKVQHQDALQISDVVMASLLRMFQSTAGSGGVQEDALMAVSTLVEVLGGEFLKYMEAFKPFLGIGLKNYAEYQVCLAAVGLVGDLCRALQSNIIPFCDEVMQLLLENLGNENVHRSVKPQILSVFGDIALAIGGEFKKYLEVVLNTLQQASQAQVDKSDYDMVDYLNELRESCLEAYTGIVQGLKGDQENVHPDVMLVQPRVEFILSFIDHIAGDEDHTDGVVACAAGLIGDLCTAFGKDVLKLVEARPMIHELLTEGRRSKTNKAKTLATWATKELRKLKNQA
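FRET biosensor (snurportin 1 IBB flanked by EYFP and cerulean), 50 nM, with compound 5 min, then 0.125 microM importin beta in PBS, 1 mM DTT, 0.02% Tween-20, 0.1% BSA. CFP/YFP ratio read after 45 min at room temperature; pre-read flags interference.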
GLA inh pH 4.5: inhibitors of human alpha-galactosidase A at pH 4.5. P06280. purified enzyme, 4-MU-alpha-Gal fluorescence, pH 4.5. activity change, negative = inhibition, % at 105 µM. 230,000 tested, under 10 active; inconclusive = small, poorly fitted or top-dose-only inhibition, or a rising curve; inactive = flat fitted curve, though single readings scatter; no compound was filed as active;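 also: 0% = full activity with enzyme and -100% = basal without enzyme; dose as in the result columns while the protocol names 77 µM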
Rango release inh: inhibitors of RanGTP-induced Rango-importin beta complex dissociation. AID 540253. actives 0.071% (n = 340,000). O95149+P62826. Potency, µM (doses to about 46.1 µM), without a hit: at the top dose activity change, negative = inhibition. Biochemical FRET Rango-importin beta, RanGTP-induced dissociation; active means falling FRET ratio curve, often poorly fitted, with flat reads before Ran was added; inconclusive means other falling curves, or compound fluorescence or quenching; inactive means flat or rising ratio curve;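 also: potency is read from the fitted curve at half-maximal effect; % of control where 0% means no effect; nearly all actives have a fitted effect of over 45% in size; -100% = wells without RanGTP and RCC1; the record marks most hits as doubtful in a second field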
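Rango (0.1 uM)–importin beta (0.25 uM) complex; RanGTP-RCC1 trigger; 45 min RT; CFP/YFP FRET read.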
miR-21 FLuc: raises the signal of a miR-21 reporter | HeLa miR-21 FLuc reporter, luciferase, 48 h | Potency, µM (doses to about 38.3 µM), for the others: at the highest dose reporter change, positive = more light | 340,000 tested, under 10 active | AID 2288; active = well fitted rising curve with a large enough effect; inconclusive = small, poorly fitted or top-dose-only effect; inactive = no such curve, though single readings can be large or run the other way;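 also: % of control where 0% means no effect; miR-21 action dims this reporter so a rising signal means less miR-21 action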
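HeLa miR-21-FLuc reporter line, endogenous miR-21; 2000 cells/well in DMEM/10% FBS; compound titration up to ~40uM final, 48 h, 37 degree Celsius; luciferase detection reagent, 15 min lysis, CCD luminescence.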
The depositor's hits bear a star; ? = inconclusive; · = no result given; & = joins results of further samples; [ ] = another dose, or the depositor's remark. Not all compounds are listed; the hit share may differ from the screen's.

SMILES | Rango-impB inh | GLA inh pH 4.5 | Rango release inh | miR-21 FLuc
Cc1ccc(C(=O)Nc2ccc(S(=O)(=O)N3CCCC3)cc2)s1 | -0.5% | -6 | -4% | -15%
Cc1cc(C)n2nc(CNS(=O)(=O)c3c(F)c(F)c(F)c(F)c3F)nc2n1 | 4.7% | · | 5% | 15%
NC(=O)c1ccc(-c2nnn(CC(=O)N(C3CCCCC3)C3CCS(=O)(=O)C3)n2)cc1 (stereo not drawn) | -0.3% | · | -5% | ·
CN(C)c1ccc(C(=S)Nc2ccccc2)cc1 | -1.5% | -10 | -11% | -31%
Cc1ccc(C)c(C(C)NC(=S)NC2CCCCC2)c1 (stereo not drawn) | -4.3% | · | -12% | 19%
Nc1oc2ccc(F)cc2c(=O)c1C=O | 2.9% | 11 | 1% | -4%
O=C(NCCNC(=O)c1ccco1)c1cccc(F)c1 | -1.6% | 4 | -5% | -5%
Cc1cccc(CCN2CCN=C2N(C)C)c1 | 4.1% | · | -15% | ·
CCOc1ccc(N(Cc2cc3cc(OC)ccc3[nH]c2=O)S(C)(=O)=O)cc1 | -0.1% | 0 | -17% | -7%
COc1c(C)c2c(c(O)c1C/C=C(\C)CCC(=O)O)C(=O)OC2 | -0.4% | 9&-7&-2&10&7 | 1% | ·
CCOc1ccc(NC(=O)N2CCC(NC(=O)C(Cc3cccc(F)c3)NC(C)=O)CC2)cc1 (stereo not drawn) | -1.9% | · | 0% | -4%
CNC(=O)CSc1nc(SC)ns1 | 3.6% | ? | 2% | -1%
CCOC(=O)C1(Cc2ccccc2)CCCN(C2CCCC2)C1 (stereo not drawn) | 2.7% | 1 | 21% | -8%
CC1CCC(C(=O)c2c(O)c3ccccc3oc2=O)CC1 (stereo not drawn) | 0.5% | -1 | 13% | -2%
COC(=O)c1ccccc1NC(=O)CSc1nnc(-c2cccnc2)n1C | ? | 1 | -6% | -4%
CC(C)C(NC(=O)c1ccccc1)C(=O)OCC(=O)N1CCN(c2ccccc2)CC1 (stereo not drawn) | 3.5% | · | -1% | ·
O=c1c2c(nc3cc(-c4ccccc4)[nH]n13)CCC2 | 1.5% | 5 | 7% | -37%
CCOC(=O)N1CCC(=NNc2nc(C)cc(=O)[nH]2)CC1 | 0.9% | 0 | -2% | -8%
O=C(O)C/C=C(\NC(=O)OCc1ccccc1)C(=O)OCc1ccccc1 | -0.6% | 6 | 6% | -1%
Cc1ccc(OCCCC(=O)Nc2nccs2)cc1 | -0.6% | 2 | -3% | -31%
Cn1c(N)c(Sc2ccccc2[N+](=O)[O-])c(=O)n(C)c1=O | 1.2% | · | -6% | 0%
CCOC(=O)CN1Cc2cccc(C(=O)O)c2C1=O | 2.5% | -6 | -9% | -3%
O=c1[nH]c2cc3ccccc3cc2nc1C(F)(F)F | ? | -12[21.1 µM] | ? | -1%
Cc1ccccc1S(=O)(=O)Cc1ccc(C(=O)NC2CCCC2)o1 | 2.2% | · | 18% | -2%
CCc1ccc(CN2CCCC(CCC(=O)N3CCN(c4ccccn4)CC3)C2)o1 (stereo not drawn) | 5.6% | 2 | -1% | 5%
CCN(CC)CCCNC(=S)Nc1ccc(Br)cc1 | -0.1% | -3 | -10% | -65%
CC(C(O)c1cc(=O)c(OCc2ccccc2)co1)[N+](=O)[O-] (stereo not drawn) | -2.7% | · | -7% | ·
O=C1C(=O)N(CCCN2CCOCC2)C(c2ccc([N+](=O)[O-])cc2)/C1=C(/O)c1ccc2c(c1)OCO2 (stereo not drawn) | -3.1% | · | -6% | -8%
CCOC(=O)c1c(C)n(C)c2ccc(OC)c(NC(=O)CN3CCN(C(=O)c4ccco4)CC3)c12 | 1.1% | -1 | 3% | -7%
COc1cc(NC(=O)C2CC(c3ccccc3O)=NO2)c(OC)cc1Cl (stereo not drawn) | 0.5% | · | 11% | -3%
COc1ccc(N2CCN(C(=O)CN(c3ccccc3)S(=O)(=O)c3ccc(OC)cc3)CC2)cc1 | -1.2% | 2 | 1% | 2%
Cc1ccc(C)c(S(=O)(=O)N2CCCCC2CCNC(=O)C(=O)NCc2cccnc2)c1 (stereo not drawn) | 2.6% | · | -3% | ·
COc1ccc(NC(=O)CN(C)CC(=O)NC2CCCCC2C)cc1 (stereo not drawn) | 0.2% | · | 2% | ·
O=C(Nc1nnc(SCC(=O)N2CCOCC2)s1)c1ccccc1 | -1.1% | -1 | 2% | 0%
CCN(CC)C(=O)c1ccc(Oc2ccc([N+](=O)[O-])cc2Cl)cc1 | -1.2% | 0 | -3% | 3%
Clc1ccc(-n2ncc3c(NCc4ccc5c(c4)OCO5)ncnc32)cc1 | -0.3% | -2 | -24% | -23%
CC(=O)N1CCN(C(=O)CCc2cc(C(C)(C)C)c(O)c(C(C)(C)C)c2)CC1 | 1.1% | · | -8% | 0%
COC(=O)c1[nH]nc(-c2ccccc2)c1-c1ccccc1 | -1.6% | · | 1% | ·
Cc1ccc(-n2c(SCC3CNC(=O)O3)nnc2-c2ccccc2)cc1C (stereo not drawn) | · | -1 | · | -10%
CCOC(=O)c1ccc(NC(=O)N(CC)CC)cc1 | ? | -6 | 14% | -56%
CCOC(=O)C1=CN(Cc2cccc(F)c2)S(=O)(=O)NC1c1ccc2ccccc2c1 (stereo not drawn) | -0.5% | · | -1% | ·
NC(=O)c1ccsc1NC(=O)c1ccc2c(c1)CCCC2 | -2.6% | 0 | -16% | -20%
CC1CC1C(=O)OCC(=O)Nc1ccc2[nH]c(=O)[nH]c2c1 (stereo not drawn) | -1.7% | -14 | -18% | -2%
O=C(O)CSCC(=O)Nc1cccc(C(F)(F)F)c1 | 4.1% | 3 | 13% | -2%
O=C1NC2(CCc3ccccc3C2)C(=O)N1CCOc1cccc(Cl)c1 (stereo not drawn) | -2.0% | 5 | 5% | -10%
O=C1CC(SCc2nc3ccccc3[nH]2)C(=O)N1c1ccc(F)c(Cl)c1 (stereo not drawn) | ? | -3 | -26% | -4%
Cc1ccc(S(=O)(=O)N2CCN(CC(=O)N/N=C/c3cc([N+](=O)[O-])ccc3Cl)CC2)cc1 | 2.9% | -8 | 2% | 0%
Cc1ccc(S(=O)(=O)NC(CC(=O)N2CCOCC2)c2ccco2)cc1 (stereo not drawn) | -0.2% | -1 | -4% | -4%
COc1ccc(NC(=O)CN(C)C(=O)c2cc(-c3ccc(C)o3)nc3ccccc23)cc1 | ? | · | -14% | ·
CCNC(=O)COc1ccc(-c2ccccc2)cc1 | 3.6% | 7 | -3% | -55%

Further compounds:
SMILES | Rango-impB inh | GLA inh pH 4.5 | Rango release inh | miR-21 FLuc
CCn1c(C)c(P(c2ccccc2)c2ccccc2)[n+]2ccccc12 | -2.5% | 5 | -13% | 28%
Cc1ccc2oc(=O)c3cc(C(=O)NCCCN4CCCCCC4)sc3c2c1 | 0.4% | · | -4% | 0%
Cc1cc(NC(=O)CSc2nnc(NC(=O)C3CC(=O)N(c4ccccc4C)C3)s2)no1 (stereo not drawn) | 1.0% | -7 | 9% | -8%
CCCn1c(C(CO)Nc2nc(-c3cccc(Br)c3)cs2)nc2ccccc21 (stereo not drawn) | 0.1% | · | -4% | 7%
Cc1cccc(C(=O)OC(C)C(=O)N2CCc3ccccc3C2)c1C (stereo not drawn) | ? | · | ? | ·
COc1ccc(-n2ncc3c(N4CCN(Cc5ccccc5)CC4)ncnc32)cc1 | -1.7% | -4 | 0% | -2%
O=C(Cn1cnc2ccccc2c1=O)Nc1nnc(C2CC2)s1 | ? | 4 | 26% | -2%
Cc1nc(COC(=O)c2ccc(S(=O)(=O)N3CCCC3)cc2)cs1 | 0.0% | -10 | 1% | 0%
Cc1c(Cc2ccccc2)c(=O)oc2cc(OCC(=O)NCc3ccccn3)ccc12 | -6.5% | · | 11% | 4%
CCOC(=O)C1(CC2CC2)CCN(C(=O)c2cc(C)nc3ccc(CC)cc23)CC1 | -3.4% | 10 | 14% | -3%
CCOC(=O)c1oc2ccc(S(=O)(=O)n3nc(-c4ccc(C)cc4)cc3N)cc2c1C | -1.1% | 6 | 0% | -1%&-5%
O=C(OCC(=O)N1CCN(C(=O)c2ccco2)CC1)c1cc(S(=O)(=O)Nc2ccc(Cl)cc2)ccc1O | 0.1% | -29 | -3% | -2%
Cc1ccc(C23CC4CC(CC(C(=O)NCC(=O)O)(C4)C2)C3)cc1 | -0.5% | · | -1% | 2%
COCCn1c(SCC(=O)Nc2ccccc2OC)nc2ccccc21 | -2.4% | 3 | 15% | -2%
COc1ccccc1C(O)P(=O)(OCC(C)C)c1ccc(N(C)C)cc1 (stereo not drawn) | 1.4% | · | -20% | 2%
CC(C)OC(=O)CSc1nnc(Cc2ccccc2)n1Cc1ccco1 | 1.7% | -12 | 14% | 0%
Cc1ccc(S(=O)(=O)N2CCN(C(=O)CCNC(=O)c3ccccc3Cl)CC2)cc1 | ? | · | 10% | ·
COc1ccc(NC(=O)C2CCCN2S(=O)(=O)c2ccc3c(c2)CCC(=O)N3)cc1Cl (stereo not drawn) | -1.8% | 2 | -10% | -12%
COc1ccc(CCNCc2ccc(OCc3ccccc3)cc2)cc1 | 0.6% | · | 5% | -11%
N#Cc1c(-c2ccccc2)c(-c2ccccc2)n[nH]c1=O | -0.2% | · | -14% | 19%

Only Rango release inh, miR-21 FLuc and Rango-impB inh (2 entries from above):
canonical_smiles,Rango release inh,miR-21 FLuc,Rango-impB inh
COCCn1c(SCC(=O)Nc2ccccc2OC)nc2ccccc21,15%,-2%,-2.4%
COc1ccccc1C(O)P(=O)(OCC(C)C)c1ccc(N(C)C)cc1 (stereo not drawn),-20%,2%,1.4%

Further entries:
SMILES | Rango-impB inh | GLA inh pH 4.5 | Rango release inh | miR-21 FLuc
CCCCOc1ccc(C(=O)NCC(=O)NCC(c2ccc(OC)cc2)N2CCOCC2)cc1 (stereo not drawn) | -0.9% | · | 1% | ·
CCOC(=O)c1ccc(NC(=O)C2C3CCC(C3)C2C(=O)O)cc1 (stereo not drawn) | 0.2% | 4 | -1% | -32%
O=C(C1CCCCC1)N1CCCn2c1nc1ccccc12 | -3.2% | 1 | -9% | -10%
O=C(COc1ccc(Br)cc1)N(Cc1ccco1)C1CCS(=O)(=O)C1 (stereo not drawn) | -3.8% | · | 12% | -1%
O=C(NCC1CCCO1)c1sc2cc(Cl)ccc2c1Cl (stereo not drawn) | ? | -5 | 4% | -57%
COc1ccc(Cc2nnc(SCC(=O)Nc3ccccc3)[nH]c2=O)cc1 | -4.9% | · | -15% | ·
CC(=O)n1cc(N(C(=O)CCl)c2ccc([N+](=O)[O-])cc2)c2ccccc21 | 0.1% | -5 | -15% | ?
N#Cc1ccc(/C=N/NC(=O)c2cccc(S(=O)(=O)N3CCOCC3)c2)cc1 | 1.1% | 4 | 19% | 2%
CCCCN(C(=O)CSc1nncn1-c1ccccc1)c1c(N)n(Cc2ccccc2)c(=O)[nH]c1=O | 0.8% | 5 | -3% | 10%
N#Cc1nc(Cc2ccccc2)oc1NCCCn1ccnc1 | -0.8% | 4 | 4% | -23%

Single values from the results shown.
Result of O=C(C1CCCCC1)N1CCCn2c1nc1ccccc12 in Rango-impB inh: -3.2%
Result of CCOC(=O)c1ccc(NC(=O)C2C3CCC(C3)C2C(=O)O)cc1 (stereo not drawn) in Rango release inh: -1%

Additional results
SMILES | Rango-impB inh | GLA inh pH 4.5 | Rango release inh | miR-21 FLuc
O=C(O)c1ccccc1-c1ccccc1C(=O)Nc1ccc2c(c1)C(=O)c1ccccc1-2 | -0.2% | · | -4% | ·
CC1(C)CC(=O)C(CC(=O)NC2CCCc3ccccc32)C(=O)C1 (stereo not drawn) | ? | -15 | 3% | -1%
CC1Cc2ccccc2N1C(=O)CSc1nnnn1-c1ccc2c(c1)OCCO2 (stereo not drawn) | -0.7% | -2 | -1% | -4%
Cc1ccc(C2=NOC(C)(c3nnc(-c4ccc(F)cc4)o3)C2)cc1 (stereo not drawn) | -1.2% | -2 | -16% | -5%

High-throughput results from PubChem BioAssay.
